GCN5L2 inh: qHTS Assay for Inhibitors of GCN5L2. Histone acetyltransferase KAT2A (Homo sapiens), Q92830. 390,000 compounds, 0.21% hits. Potency, µM (highest dose often 58.9 µM), inactives show at the top dose activity change, negative = inhibition, hits mostly inhibitors. GCN5L2 HAT assay, ThioGlo1 CoA-SH fluorescence; active = well fitted inhibition curve with a large enough effect; inconclusive = small, poorly fitted or top-dose-only effect, or another doubt; inactive = no such curve, though single readings can be large or run the other way
Target sequence (Q92830 whole entry, looked up): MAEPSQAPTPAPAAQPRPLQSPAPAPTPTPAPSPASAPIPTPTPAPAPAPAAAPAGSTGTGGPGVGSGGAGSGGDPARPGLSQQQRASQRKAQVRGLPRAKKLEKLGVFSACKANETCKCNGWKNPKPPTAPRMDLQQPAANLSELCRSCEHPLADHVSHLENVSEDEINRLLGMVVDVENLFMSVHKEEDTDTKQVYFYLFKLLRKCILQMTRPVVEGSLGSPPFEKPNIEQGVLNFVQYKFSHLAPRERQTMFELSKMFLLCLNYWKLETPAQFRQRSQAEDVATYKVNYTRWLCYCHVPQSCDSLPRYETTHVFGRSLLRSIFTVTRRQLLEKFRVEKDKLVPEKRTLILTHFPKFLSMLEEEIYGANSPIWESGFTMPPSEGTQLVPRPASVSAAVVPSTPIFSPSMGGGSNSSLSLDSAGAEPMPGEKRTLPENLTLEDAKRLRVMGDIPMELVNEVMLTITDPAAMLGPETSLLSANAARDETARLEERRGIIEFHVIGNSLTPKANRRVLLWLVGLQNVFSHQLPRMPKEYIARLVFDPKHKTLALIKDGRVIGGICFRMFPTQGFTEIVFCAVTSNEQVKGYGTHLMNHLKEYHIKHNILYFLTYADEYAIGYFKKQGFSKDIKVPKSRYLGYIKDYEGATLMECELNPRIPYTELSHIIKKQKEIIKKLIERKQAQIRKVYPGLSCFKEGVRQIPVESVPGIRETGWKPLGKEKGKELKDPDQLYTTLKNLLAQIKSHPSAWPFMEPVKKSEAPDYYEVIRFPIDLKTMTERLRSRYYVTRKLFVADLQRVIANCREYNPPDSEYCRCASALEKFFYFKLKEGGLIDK
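GCN5L2 (20 nM) in 50mM HEPES pH 7.5, 0.1mM EDTA, 0.01% Tween-20 preincubated 15 min with compounds at room temperature. Reaction started with H3(1-25) 75uM, acetyl-CoA 70uM, ThioGlo1 50uM; CoA-thiol fluorescence (Ex340/Em540) read at 0 and 20 min.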
The depositor's hits bear a star; ? = inconclusive; [ ] = another dose, or the depositor's remark. % is scaled to controls: 0 for no effect and ±100 for the full control effect; potency is read from the fitted curve at half-maximal effect. An excerpt; most or all hits stand in other tables.

GCN5L2 inh	SMILES
-15%	O=C(NNC(=O)c1cccs1)c1ccc([N+](=O)[O-])cc1
-1%	CC(=C1C(=O)c2ccccc2C1=O)N1CCN(c2ccccn2)CC1
-2%	Cc1ccc(CNS(=O)(=O)c2ccc(-n3cnnn3)c(C)c2)cc1
?	COC(=O)c1c(C#N)c(N)nc2c1CCCC2
2%	CC(C)Cn1c(CCCNC(=O)c2ccc(F)cc2)nc2ccccc21
-10%	COc1cccc(NC(=O)CC2C(=O)NCCN2C(=S)Nc2ccc(F)cc2)c1 (configuration not stated)
-1%	CCC(C)NC(=O)CSc1nc2cc3c(cc2c(=O)n1CCCCCC(=O)NCc1ccc(OC)cc1)OCO3 (configuration not stated)
-2%	CC(C)(C)NC(=O)C1CC(=O)OC12CCCCC2 (configuration not stated)
-24%	CC(=O)N(c1ccc(N(C(C)=O)S(=O)(=O)c2cccs2)cc1)S(=O)(=O)c1cccs1
-8%	COc1ccccc1OCCn1cc(C=O)c2ccccc21
-23%	Cc1ccc(-c2nnn(CC(=O)N(CC(=O)NCC3CCCO3)c3ccccc3)n2)o1 (configuration not stated)
-5%	CN(C(=O)COC(=O)c1cccc(S(=O)(=O)N2CCCCCC2)c1)C1CCS(=O)(=O)C1 (configuration not stated)
1%	CC(C)Oc1ccc(C(=O)N(Cc2ccco2)C2CCS(=O)(=O)C2)cc1 (configuration not stated)
2%	CCCc1nc2sc3c(c2c(=O)n1NC(=O)CCC(=O)OC)CCCC3
-2%	CCOC(=O)c1[nH]c(C)c(CN(Cc2ccco2)C(=O)C(F)(F)F)c1C
-11%	O=C(CN(CCO)c1ccccc1)NC12CC3CC(CC(C3)C1)C2
-2%	CCCc1cc(O)c2c(C)cc(=O)oc2c1
-19%	O=C(CCC(=O)N1CCN(Cc2ccccc2)CC1)Nc1nnc(C2CCCCC2)s1
-14%	CSC1=N/C(=C\c2cccc(F)c2)C(=O)S1
-3%	COc1cc(C)c(C(C)C)cc1S(=O)(=O)n1ccnc1

GCN5L2 inh	SMILES
-4%	Cc1cc(C(=O)Nc2cccc(S(=O)(=O)N3CCCC3)c2)c2ccccc2n1
-16%	CCN(CC)c1ccc(/C=c2\sc3nc4ccccc4n3c2=O)c(O)c1
-5%	CCCN1CCC(NC(=O)Nc2cc(Cl)ccc2OC)CC1
1%	O=C(CN1C(=O)C2CCCCC2C1=O)Nc1nc(-c2ccc(F)cc2)cs1 (configuration not stated)
-1%	CCc1ccc(N(CC(=O)NCc2ccco2)C(=O)CCC(=O)Nc2ccccn2)cc1
44%[activator]	CC(Cc1ccccc1)NC(=O)CSc1nc2nc3c(cc2c(=O)n1-c1ccccc1)COC(C)(C)C3 (configuration not stated)
-2%	O=C(c1cccc(S(=O)(=O)Nc2ccccc2Cl)c1)N1CCN(c2ccccc2O)CC1
0%	O=C1CC(c2nc3ccccc3[nH]2)CN1c1cccc(C(F)(F)F)c1 (configuration not stated)
-1%[0.501 µM]	CC(=O)Cn1cnc2sc(-c3ccccc3)cc2c1=O
2%	Cc1nn(CC(=O)NCCCc2ccccc2)c(=O)c2cc3occc3n12
-6%	O=C(NCCc1ccc(Cl)cc1)C1CCN(S(=O)(=O)c2cccs2)CC1
0%	C=C1N(c2cccc(Cl)c2)C(=O)OC1(C)C
-4%	CCS(=O)(=O)n1c(Cc2cccs2)nc2ccccc21
-1%	CCOc1ccc(C2C3=C(CCCC3=O)Nc3ccc4ncccc4c32)cc1 (configuration not stated)
-3%	Cc1ccc(S(=O)(=O)N2CCN(c3ccc(N4CCOCC4)nn3)CC2)cc1[N+](=O)[O-]
-3%	O=C(CSc1nnc(-c2ccccc2)n1-c1ccccc1)N1c2ccccc2Sc2ccccc21
-16%	CC12CCC(=O)N1C(C(=O)NCc1ccccc1Cl)CS2 (configuration not stated)
3%	CCN(CC)NC(=O)Nc1ccccc1
-14%	CCOC(=O)C(Cc1c[nH]c2ccccc12)NC(=O)COc1ccc(Cl)c(C)c1 (configuration not stated)
-13%	CCN(CC)S(=O)(=O)c1cccc(C(=O)Nc2nc3cc4c(cc3s2)OCCO4)c1

GCN5L2 inh	SMILES
0%	COc1ccc2c(c1)CCC1C2=NN(/C(C)=C/C(C)=O)C1c1cccc(F)c1 (configuration not stated)
0%	Cc1ccc(NC(=O)CSc2nnc(COc3ccc(Cl)cc3)o2)c(C)c1
-15%	O=C(NNc1ncnc2c1cnn2-c1ccc(F)cc1)c1ccco1
-4%	CC1(C)C(=O)NCCN1C(=O)CCCC(=O)O
-14%	Cc1ccc(-c2csc(NC(=O)c3cccs3)n2)cc1
2%	O=C(c1ccco1)N(Cc1cc2ccccc2[nH]c1=O)C1CCCCC1
?	CC(C)(C)c1ccc(Oc2ccc(N)cn2)cc1
-4%	CCOC(=O)N1CCC(NC(=O)c2csc3c2CCCC3)CC1
-2%	Cc1c(C(=O)NC(Cc2ccccc2)c2nc3ccccc3[nH]2)cccc1[N+](=O)[O-] (configuration not stated)
-4%	NS(=O)(=O)c1ccc(NC(=O)c2ccccc2Cl)cc1
-6%	Cc1ccsc1CN(C(=O)c1oc2cc(Br)ccc2c1C)C1CCS(=O)(=O)C1 (configuration not stated)
0%	CCOC(=O)C1=C(C)NC(=O)NC1/C=C/c1ccccc1 (configuration not stated)
-10%	CCOC(=O)COc1ccc(S(=O)(=O)Nc2ccc3c(c2)OCCO3)cc1
-6%	CC(C)(C)S(=O)(=O)c1ccc2nc3c(n2c1)CCCC3
-8%	Cc1ccccc1/C=C/c1nc2ccccc2c(=O)n1CCc1ccccc1
-9%	O=C(C[C@H]1C[C@H](C(=O)N2CCCCC2)[C@@]2(CCc3ccccc3)c3[nH]c4cc(-c5ccco5)ccc4c3CCN2C1=O)NCCN1CCOCC1
-4%	CCOc1ccccc1NC(=O)CNC(=O)CNC(=O)Cc1ccccc1
-11%	CCc1cc2c(=O)c(Oc3ccccc3)c(C)oc2cc1O
-3%	CC(C)Oc1ccc(Cc2cnc(N)nc2N)cc1
-7%	Cc1ccc(C)c(NC(=O)COC(=O)CC2CC3CCC2C3)c1 (configuration not stated)

GCN5L2 inh	SMILES
-5%	O=C(CSc1nnc(-c2cccnc2)o1)Nc1nccs1
-2%	CC1(C)Cc2c(cnn2-c2cccc(F)c2)C(NC(=O)Cn2cccn2)C1 (configuration not stated)
-5%	Cc1ccc(NC(=O)CN2C(=O)CSc3ccc(S(=O)(=O)N(C)C)cc32)c(C)c1
3%	CCCCNC(=O)NNC(=O)c1ccc(F)cc1
-18%	COc1ccc(NC(=O)Nc2ccc3oc(C)nc3c2)cc1
-2%	Cc1ccc(C(=O)Nc2ccc3nc(C)sc3c2)s1
-6%	CCOc1ccc(NC(=O)c2cnsn2)cc1
3%	O=S(=O)(c1ccccc1)N1CCN(c2cc(-c3ccccc3)nc3ncnn23)CC1
24%	Cc1ccc(-c2nnn(CC(=O)NC3CCCc4ccccc43)n2)cc1 (configuration not stated)
2%	CC(Sc1nnnn1C)C(=O)Nc1cc(S(=O)(=O)N2CCCCC2)ccc1Cl (configuration not stated)
-22%	COc1ccc(-n2c(SCC(=O)Nc3ccc(C(=O)O)cc3)nnc2-c2cccs2)cc1
3%	Cc1cccc(C(=O)NCCNc2nc3cc(C)c(C)cc3cc2C)c1
-20%	O=C1C2=C(Nc3ccccc3SC2c2ccc(C(F)(F)F)cc2)c2ccccc21 (configuration not stated)
-1%	Cc1cccc(N/C(N)=N/c2nc3c(c(=O)[nH]2)CCCC3)c1
-7%	O=Cc1ccc(N2CCCCC2)cc1
-4%	O=C(COc1ccccc1)NNC(=S)NC(=O)c1ccc(Cl)cc1Cl
-5%	CC1=NNC(=O)C1CC(=O)N/N=C(/C)c1cccc([N+](=O)[O-])c1 (configuration not stated)
0%	O=C1C=CCCC1
-3%	O=C(COC(=O)c1cc(=O)[nH]c(=O)[nH]1)Nc1ccccc1F
-2%	CCOc1ccc(NC(=O)NCCCN2CCN(c3ccc(F)cc3)CC2)cc1

GCN5L2 inh	SMILES
-5%	O=C(COc1ccccc1[N+](=O)[O-])NC1CC1
-8%	Cc1ccc(CNC(=O)/C=C/c2ccccc2Cl)cc1
-11%	Cc1occc1-c1nnc(SCCNCCO)o1
?	COc1ccc(/C=N/NC(=O)c2cc3c(ccc4ccccc43)o2)c(OC)c1
-6%	CCCn1cc(S(=O)(=O)c2ccc(CC)cc2)c(=O)c2ccccc21
-1%	O=C1CC(C2CCCO2)C(=O)N1c1ccccc1 (configuration not stated)
3%	O=C(Cc1cccs1)NCc1cccs1
0%	O=C(Nc1cc(Cl)ccc1N1CCCC1)C1=COCCO1
-27%	COc1ccc(CNC(=O)c2csc(Cc3ccc(OC)cc3)n2)cc1
-6%	CCOc1ccc(-c2noc(CCCC(=O)NC3CCCCC3)n2)cc1OC
0%	CCN(Cc1nc2cc(Cl)ccc2c(=O)[nH]1)C(=O)c1cc2c(s1)CCCCC2
-5%	COc1ccc(NC(=O)Cn2c(CCC(=O)O)ccc2-c2ccccc2)cc1Cl
-2%	CC1CCCCC1NC(=O)c1cccc(N2C(=O)C3C4C=CC(C4)C3C2=O)c1 (configuration not stated)
1%	CCOc1cc(-c2ccccc2)nc(N)n1
-4%	Cc1cc(S(=O)(=O)N(C)CCc2ccccc2)ccc1-n1cnnn1
0%	CCOC(=O)NC1(C(F)(F)F)C(=O)N(Cc2ccccc2)C2=C1C(=O)CC(C)(C)C2 (configuration not stated)
-11%	COc1ccc(OC)c(-c2noc(N3CCN(c4cc(C)ccc4C)CC3)n2)c1
18%	CCOC(=O)C1CCC(CN(Cc2ccccc2)S(=O)(=O)c2ccc([N+](=O)[O-])cc2)CC1 (configuration not stated)
2%	CC1CCN(C(=S)NC2CC3CCC2C3)CC1 (configuration not stated)
2%	CC(=O)NC12CC3CC(C1)CC(C(=O)N(C)CC(=O)Nc1ccc(F)c(F)c1F)(C3)C2

Part of the list above, bar-delimited:
Molecule | GCN5L2 inh
O=C(Nc1cc(Cl)ccc1N1CCCC1)C1=COCCO1 | 0%
COc1ccc(CNC(=O)c2csc(Cc3ccc(OC)cc3)n2)cc1 | -27%
CCOc1ccc(-c2noc(CCCC(=O)NC3CCCCC3)n2)cc1OC | -6%

The listing continues:
GCN5L2 inh	SMILES
-3%	S=C(NCc1cccnc1)Nc1cc(Cl)cc(Cl)c1
7%	CC(=O)c1sc(-c2cccc(Cl)c2)nc1C
-10%	O=C(O)C(NS(=O)(=O)c1ccc(F)cc1)c1ccccc1 (configuration not stated)
-4%	C#C[C@]1(O)CC[C@H]2[C@@H]3CCC4=Cc5oncc5CC4(C)[C@H]3CCC21C (some centres not stated)
-11%	N#Cc1c(N)nc2c(c1-c1ccc3c(c1)OCO3)CCc1ccccc1-2
-3%	CCCCCCCCNC(=S)NCCN1CCCCC1
-16%	COc1ccc(N2CCN(c3nc(Nc4ccc(C)c(F)c4)nc(N4CCCC4)n3)CC2)cc1
5%	Cc1ccc(/C=N/NC(=O)CNC(=O)c2ccc(S(=O)(=O)N(C)C)cc2)cc1
-8%	O=C(Cn1nnc(-c2ccc(S(=O)(=O)N3CCCC3)cc2)n1)Nc1ccccc1-n1cccc1
1%	COc1ccc2nc(NC(=O)c3cnccn3)sc2c1
-10%	Cn1c(N)c(C(=O)COC(=O)c2cccnc2Cl)c(=O)n(C)c1=O
-5%	CC(=O)Nc1ccc(S(=O)(=O)Nc2nc3n(n2)C(c2ccccc2)CC(=O)N3)cc1 (configuration not stated)
-16%	Cc1ccc(NC(=O)c2cc3c(s2)CCCC3)cc1S(=O)(=O)Nc1ccccc1Cl
-8%	Cc1cc(C)cc(NC(=O)C2CCN(S(=O)(=O)c3cn(C)cn3)CC2)c1
-8%	Cc1ccc(NC(=S)N(CCN2CCCCC2)Cc2ccco2)cc1C
-6%	Cc1cccc(NC(=O)c2cc(S(=O)(=O)c3ccccc3)ccc2Cl)c1
-4%	O[C@@H]1[C@@H](O)C=C2CCN3Cc4cc5c(cc4[C@H]1C23)OCO5 (some centres not stated)
?	COCCN(CC(=O)NC1CCCCC1)C(=O)c1csnn1
-1%	CC(C)NC(=O)NC(=O)COC(=O)c1ccccc1Oc1ccccc1
-19%	COC(=O)c1c(-c2ccc(OC)cc2)sc2cc3c(cc12)OCO3

Entries from the list above containing two or more sulfur atoms, in the order listed:
GCN5L2 inh	SMILES
-24%	CC(=O)N(c1ccc(N(C(C)=O)S(=O)(=O)c2cccs2)cc1)S(=O)(=O)c1cccs1
-5%	CN(C(=O)COC(=O)c1cccc(S(=O)(=O)N2CCCCCC2)c1)C1CCS(=O)(=O)C1 (configuration not stated)
-14%	CSC1=N/C(=C\c2cccc(F)c2)C(=O)S1
-6%	O=C(NCCc1ccc(Cl)cc1)C1CCN(S(=O)(=O)c2cccs2)CC1
-4%	CCS(=O)(=O)n1c(Cc2cccs2)nc2ccccc21
-3%	O=C(CSc1nnc(-c2ccccc2)n1-c1ccccc1)N1c2ccccc2Sc2ccccc21
-13%	CCN(CC)S(=O)(=O)c1cccc(C(=O)Nc2nc3cc4c(cc3s2)OCCO4)c1
-14%	Cc1ccc(-c2csc(NC(=O)c3cccs3)n2)cc1
-6%	Cc1ccsc1CN(C(=O)c1oc2cc(Br)ccc2c1C)C1CCS(=O)(=O)C1 (configuration not stated)
-5%	O=C(CSc1nnc(-c2cccnc2)o1)Nc1nccs1
-5%	Cc1ccc(NC(=O)CN2C(=O)CSc3ccc(S(=O)(=O)N(C)C)cc32)c(C)c1
-2%	Cc1ccc(C(=O)Nc2ccc3nc(C)sc3c2)s1
2%	CC(Sc1nnnn1C)C(=O)Nc1cc(S(=O)(=O)N2CCCCC2)ccc1Cl (configuration not stated)
-22%	COc1ccc(-n2c(SCC(=O)Nc3ccc(C(=O)O)cc3)nnc2-c2cccs2)cc1
3%	O=C(Cc1cccs1)NCc1cccs1
-16%	Cc1ccc(NC(=O)c2cc3c(s2)CCCC3)cc1S(=O)(=O)Nc1ccccc1Cl
